# Compound activity (PubChem BioAssay)
# D2 ag: human D2 receptor agonism in beta-arrestin assay; DiscoveRx PathHunter D2 beta-arrestin, luminescence, 90 min; 100% = 57 uM dopamine signal; AID 624465; activation, % (test concentration not listed); actives 0.084% (n = 360,000); in the data active = activation above about 40%; inconclusive = about 15% to 40%; inactive = below about 15%; further: compound concentration not given in the record; the text of the record calls up to 30% inactive
#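 DiscoveRx PathHunter D2 beta-arrestin cells (2,100/well) attached overnight, then compound-stimulated 90 min at 37 C in HBSS/10 mM HEPES/0.1% Tween-20 buffer; beta-galactosidase complementation read by luminescence after 1 h at ambient temperature. Dopamine 57 uM final (EC100) as control.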
# Six1-Eya2 blk: blocks human Six1 binding to Eya2. Q15475+O00167. AlphaScreen GST-Six1/His-Eya2 binding, biochemical; active compounds read low; control for the full effect not named in the record. activity change, % (no concentration beside the values). actives 0.56% (n = 360,000). AID 651725; in the data active = activity change below about -65%; inconclusive = about -30% to -65%; inactive = above about -30%; further: on the % scale 0 is the no-effect control and ±100 the full control effect
#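 Homogeneous AlphaScreen proximity assay pairing GST-Six1 with His-tagged Eya2 (added as 5X mix: 250 nM and 500 nM) in 50 mM Tris pH 8.0, 300 mM NaCl, 1 mM TCEP. Glutathione donor and nickel acceptor beads; 1 h, 37 °C, dark.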
# TRPV1 potentiator: enhances activation of the human vanilloid receptor TRPV1; Q8NER1; TRPV1-expressing cells, Fluo-8 calcium influx, capsaicin EC20 potentiation; host cell line not named in the record; control for the full effect not named in the record; potentiation, % at 8.33 µM; actives 0.02% (n = 320,000); AID 540277; active means potentiation above 80%; inconclusive means 30% to 80%; inactive means below 30%; further: 0% is about no effect
# Target sequence (Q8NER1 whole entry, looked up): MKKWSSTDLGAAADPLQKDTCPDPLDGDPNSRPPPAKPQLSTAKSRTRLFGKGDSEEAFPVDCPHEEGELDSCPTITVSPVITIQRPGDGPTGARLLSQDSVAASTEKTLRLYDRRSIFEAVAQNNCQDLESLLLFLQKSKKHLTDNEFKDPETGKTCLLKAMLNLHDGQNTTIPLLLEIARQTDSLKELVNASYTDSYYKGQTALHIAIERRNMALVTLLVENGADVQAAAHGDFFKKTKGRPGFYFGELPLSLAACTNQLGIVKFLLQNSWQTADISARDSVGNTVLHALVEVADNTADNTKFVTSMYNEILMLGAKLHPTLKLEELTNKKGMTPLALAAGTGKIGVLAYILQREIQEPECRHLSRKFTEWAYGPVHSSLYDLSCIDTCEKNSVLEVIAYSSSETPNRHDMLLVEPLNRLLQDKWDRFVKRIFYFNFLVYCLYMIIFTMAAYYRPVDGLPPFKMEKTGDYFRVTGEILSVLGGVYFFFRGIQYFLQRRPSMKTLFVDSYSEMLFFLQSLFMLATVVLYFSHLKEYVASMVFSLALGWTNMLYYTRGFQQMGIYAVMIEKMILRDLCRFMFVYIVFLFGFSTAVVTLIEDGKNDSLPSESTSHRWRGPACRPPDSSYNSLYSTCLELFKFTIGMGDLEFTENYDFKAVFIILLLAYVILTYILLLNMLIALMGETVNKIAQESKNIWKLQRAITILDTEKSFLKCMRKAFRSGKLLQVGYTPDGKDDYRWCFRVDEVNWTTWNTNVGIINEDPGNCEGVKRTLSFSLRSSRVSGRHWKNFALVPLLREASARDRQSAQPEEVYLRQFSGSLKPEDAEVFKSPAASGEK
#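 TRPV1-expressing cells were cultured overnight at 35.5C and loaded with Fluo-8 calcium dye for 40 to 90 min at room temperature. After a 10 s baseline, compound was added and calcium influx was read kinetically for 3 min (ex 480/em 520 nm).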
# CtBP-E1A inh: blocks the CtBP interaction with E1A; AlphaScreen GST-E1A/His-CtBP binding, 1536-well; active compounds read low; control for the full effect not named in the record; AID 651724; actives 0.49% (n = 340,000); activity change, % (no concentration beside the values); in the data active means activity change below about -65%; inconclusive means about -30% to -65%; inactive means above about -30%; further: on the % scale 0 is the no-effect control and ±100 the full control effect
#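 Homogeneous bead-based format: GST-tagged E1A captured on glutathione donor beads, His-tagged CtBP on nickel acceptor beads; compounds precede bead addition by 2 h at 37 °C.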
# Sfp PPTase inh: Sfp phosphopantetheinyl transferase inhibition; Q9F4F7; Biochemical Sfp PPTase activity, qHTS; Potency, µM, without a hit: max response, negative = inhibition, hits mostly inhibitors; actives 3.5% (n = 310,000); AID 1490; active means well fitted inhibition curve with a large enough effect; inconclusive means small, poorly fitted or top-dose-only effect, or another doubt; inactive means no such curve, though single readings can be large or run the other way;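 further: the enzyme is Sfp with the accession as filed and its product quenches rhodamine fluorescence; potency means the concentration at half of the fitted maximal effect; 0% = enzyme reaction without inhibitor and -100% = no enzyme wells; top concentration of the series not given in the record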
#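 With Hepes-Na pH 7.6 buffer containing 10 mM MgCl2, Sfp (15 nM) modified BHQ-2-YbbR (12.5 uM) using rhodamine-CoA (5 uM). Two reads 30 minutes apart at 525/598 nm yielded each well's rate.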
# PINK1 expr mod: PINK1 expression modulation; PINK1 immunofluorescence, high-content cytometry, 24 h; Potency, µM (series often up to 76.6 µM), for the others: at the top dose activation (PINK1 increase), actives largely listed as activators; AID 624263; actives 0.2% (n = 410,000); active = well fitted activation curve with a large enough effect; inconclusive = small, poorly fitted or top-dose-only effect; inactive = flat fitted curve, though single readings scatter; cell line not stated here;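 further: potency means the concentration at half of the fitted maximal effect; % of control where 0% means no effect; nearly all actives have a fitted effect of over 65% in size; a mitochondrial uncoupler was the plate control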
#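 Stable cell line treated 24 h with compounds at 5 concentrations (CCCP controls), then fixed and immunostained for PINK1 plus nuclear and cell stains; PINK1 immunofluorescence quantified by laser-scanning microplate cytometry.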
# D2 PAM: potentiates the human D2 dopamine receptor allosterically. P14416. DiscoveRx D2 beta-arrestin cells, luminescence, 90 min; 100% = 57 uM dopamine signal. potentiation, % (concentration not given with the values). actives 0.23% (n = 360,000). AID 624464; active = potentiation of 50% or more; inconclusive = 30% to 50%; inactive = 30% or less;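 further: compound concentration not given in the record; tested on top of an EC20 dose of dopamine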
#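 PathHunter D2 cells, attached overnight at 37 deg C, received compound in DMSO plus dopamine at EC20 (50 nM final) for 90 min at 37 deg C. Beta-arrestin recruitment was read as luminescence after 1 h with detection reagent at ambient temperature.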
# Numbers without * were called inactive; ? = inconclusive; nt = no result given; [ ] = remark or other dose.
SMILES,D2 ag,Six1-Eya2 blk,TRPV1 potentiator,CtBP-E1A inh,Sfp PPTase inh,PINK1 expr mod,D2 PAM
Cc1cc2nc(-c3cccc(Cl)c3)c(Cc3cccc(Cl)c3)n2c(C)c1Br,nt,-1,nt,8,nt,-0.5%,nt
O=C(Cn1cnnn1)NCCc1ccc(Cl)cc1Cl,-4.5,9,?,0,12%,3.0%,-8
CCc1nc2ccc(C(=O)NCCOc3ccc(OC)cc3)cn2c1N(C)C(=O)C1CCCCC1,4.6,-2,nt,1,nt,-0.1%,-10
N#C/C(=C\c1ccc(OCc2ccc(C(=O)O)cc2)cc1)C(=O)NCc1ccccc1,-0.4,-11,-4,-25,1%,1.4%,2
Cc1ccc(C)c(S(=O)(=O)N2CCN(C(=O)c3cccnc3)CC2)c1,-4.1,21,-4,0,10%,0.4%,9
CCCCn1c(N)c(N(C(=O)CSc2nnnn2-c2ccccc2)C2CCCC2)c(=O)[nH]c1=O,-2.3,4,11,nt,nt,0.5%,5
CC(CCCC(C)(C)O)NC(=O)c1ccc2oc(CCc3ccccc3)nc2c1 (stereo not drawn),2.5,2,-2,nt,9%,1.2%,12
CC1CN(CCc2ccccc2)c2nc3c(c(=O)n(CC(N)=O)c(=O)n3C)n2C1 (stereo not drawn),1.5,16,-5,0,23%,-1.6%,-4
CN(CC(=O)N1CCN(c2ccccc2)CC1)C1CCCc2ccccc21 (stereo not drawn),0.7,-5,-4,-5,4%,-0.4%,-4
Cc1ccc(OCC(=O)NNC(=O)c2ccc(-n3cncn3)c([N+](=O)[O-])c2)cc1,?,-4,-2,2,nt,6.7%,23
CCNC(=O)C1CC(=O)N(CCCc2ccccc2)C(=Nc2ccccc2)S1 (stereo not drawn),2.9,10,-2,3,29%,4.9%,-1
COc1ccc(C(=NN)c2ccc(OC)cc2)cc1,4.2,7,nt,3,nt,3.5%,-2

# Only PINK1 expr mod and TRPV1 potentiator, for 2 of the compounds above:
molecule	PINK1 expr mod	TRPV1 potentiator
Cc1ccc(OCC(=O)NNC(=O)c2ccc(-n3cncn3)c([N+](=O)[O-])c2)cc1	6.7%	-2
CN(CC(=O)N1CCN(c2ccccc2)CC1)C1CCCc2ccccc21 (stereo not drawn)	-0.4%	-4

# Later entries:
SMILES,D2 ag,Six1-Eya2 blk,TRPV1 potentiator,CtBP-E1A inh,Sfp PPTase inh,PINK1 expr mod,D2 PAM
C/C(=N\S(=O)(=O)c1ccc(C)cc1)NC(=S)Nc1ccc(C)cc1,-6.5,2,21,5,5%,-0.8%,-8
CCOP1(=O)OCC2OC(n3cnc4c(N)ncnc43)C(O)C2O1 (stereo not drawn),-1.4,-1,-3,7,22%,-1.1%,-1
O=C(NN1C(=O)C2C(C1=O)C1C=CC2C12CC2)c1ccc(Cl)cc1 (stereo not drawn),-1.5,3,5,-21,-3%,-0.1%,-13
CC(C)Sc1ncc(S(=O)(=O)c2ccccc2)c(=O)[nH]1,2.3,6,-1,5,19%,0.9%,-2
CC(=O)Nc1ccc(-c2nc3cc(Cl)ccc3o2)cc1,-4.9,14,7,5,11%,1.7%,-4
CCc1cc(C(=O)c2ccc(OC)cc2)c(NC(=O)CN2CCN(C)CC2)s1,-8.6,15,7,-10,0%,2.4%,-1
O=C(C1CC(=O)N(c2ccccc2F)C1)N1CCOCC1 (stereo not drawn),1.8,-2,nt,nt,nt,1.6%,1
CC(O)C(NC(=O)OCc1ccccc1)C(=O)NCC(=O)NCC(=O)OCc1ccccc1 (stereo not drawn),-6.0,10,nt,2,nt,-0.2%,-1
CCOc1ccc(CN(C)CC(=O)NCc2ccccc2Cl)cc1,-3.7,-11,9,4,15%,-0.5%,-7
COC(=O)CSc1nnc(CNS(=O)(=O)c2ccc(C)cc2)n1C,-2.9,4,2,-9,-1%,0.9%,-5
COCCNc1nc(-c2cc(-c3ccc(Cl)cc3)on2)cc(C(C)C)n1,0.3,18,-68,12,?,2.3%,-3
Cc1ccccc1NC(=O)C1CCCN(S(=O)(=O)c2c(C)noc2C)C1 (stereo not drawn),-3.5,3,-1,0,15%,5.6%,-7

# Retrieved by structure from the entries so far (five):
SMILES,D2 ag,Six1-Eya2 blk,TRPV1 potentiator,CtBP-E1A inh,Sfp PPTase inh,PINK1 expr mod,D2 PAM
N#C/C(=C\c1ccc(OCc2ccc(C(=O)O)cc2)cc1)C(=O)NCc1ccccc1,-0.4,-11,-4,-25,1%,1.4%,2
CCOc1ccc(CN(C)CC(=O)NCc2ccccc2Cl)cc1,-3.7,-11,9,4,15%,-0.5%,-7
CCNC(=O)C1CC(=O)N(CCCc2ccccc2)C(=Nc2ccccc2)S1 (stereo not drawn),2.9,10,-2,3,29%,4.9%,-1
Cc1ccc(C)c(S(=O)(=O)N2CCN(C(=O)c3cccnc3)CC2)c1,-4.1,21,-4,0,10%,0.4%,9
CC(CCCC(C)(C)O)NC(=O)c1ccc2oc(CCc3ccccc3)nc2c1 (stereo not drawn),2.5,2,-2,nt,9%,1.2%,12

# Remaining list, next part.
SMILES,D2 ag,Six1-Eya2 blk,TRPV1 potentiator,CtBP-E1A inh,Sfp PPTase inh,PINK1 expr mod,D2 PAM
COc1ccc(-c2nnc(SCC(=O)N3CCCCC3)o2)cc1OC,2.2,1,10,5,25%,1.7%,-1
CC(=O)c1cccc(CN2CCC(CO)(Cc3ccccc3)CC2)c1,-6.4,2,-6,-20,9%,0.3%,-5
NC(=O)COC(=O)c1ccccc1OCc1ccc(Cl)cc1,-1.5,7,-2,-1,15%,2.3%,-2
CCOc1ccc(CC(=O)N/N=C/c2sccc2C)cc1,3.3,-2,22,-4,3%,-0.3%,-11
COc1ccc(C2CC(=O)OC3=C2C(=O)CC(C)(C)C3)c(OC)c1 (stereo not drawn),-1.2,-6,3,2,19%,1.9%,-2
Cn1c(CCN2CCCCC2)nc2cc(NS(=O)(=O)c3ccc(Cl)cc3)ccc21,-0.7,-2,-5,1,14%,-2.1%,-36
Cc1nn(-c2ccccc2)c(N2CCCCC2)c1/C=N/NC(=O)c1ccncc1,1.0,-3,-10,3,-14%,-0.7%,-5
c1ccc(-n2cnc3cc(NCc4ccccn4)ccc32)cc1,-2.4,-24,1,9,?,nt,-12
O=C(N/N=C/c1cccc([N+](=O)[O-])c1)c1c[nH]c2ccccc12,-1.1,-15,-22,-9,6%,2.4%,-11
CCC/C=N/NC(=O)C1COc2ccccc2O1 (stereo not drawn),12,21,-3,0,15%,3.9%,8
COc1ccc(CCNC(=O)CCc2ccsc2)cc1OC,-3.7,3,-7,-9,6%,0.9%,-7
CC1=NC(C(F)(F)F)(C(F)(F)F)C2=C(CC(C)(C)CC2=O)N1Cc1ccco1,-0.1,0,-16,-5,11%,nt,8
O=C(NNC(=O)c1sccc1-n1cccc1)c1cccs1,-7.3,-12,-13,-3,15%,1.4%,-3
CCOc1ccc(-c2nnc(SCC(=O)Nc3ccc4c(c3)c3ccccc3n4CC)n2N)cc1,9.7,6,-6,-1,?,-4.5%,28
Cc1cc(C)cc(CC(CC(=O)Nc2ccc(Cl)cc2)C(=O)O)c1 (stereo not drawn),4.3,7,3,10,12%,-1.0%,4
COc1ccc(-c2cn3cccnc3n2)cc1NC(=O)c1ccc(Br)o1,-4.5,-16,-6,-20,?,13%[38.3 µM],-10
Cc1ccc(-c2c[n+](CC(=O)Nc3cc(=O)n(C)c(=O)n3C)c3n2CCC3)cc1,-0.6,7,-4,-7,4%,-0.2%,-13
CCn1c(N)c(C(=O)NCC2CCCO2)sc1=S (stereo not drawn),-1.7,-3,-4,4,18µM*,3.0%,-10
Cc1nc(N)ncc1CCC1OCCO1,-3.1,-1,nt,-2,nt,2.1%,4
COc1cccc(C2C(C(=O)c3cccs3)=C(O)C(=O)N2c2cc(C)on2)c1 (stereo not drawn),-0.7,1,3,-1,9%,1.1%,-20
O=C1C=C(Nc2ccc(Cl)cc2)CC(c2ccc(Cl)cc2)C1 (stereo not drawn),-1.2,5,3,7,12%,nt,-28
CCCOc1ccc(C(=O)CCC(=O)OC(C)C(=O)Nc2ccc(NC(C)=O)cc2)cc1 (stereo not drawn),-2.1,-5,1,-1,nt,-0.9%,-1
CCn1c(C)c(C)c2cc(C(=O)NCCCN3CCCCCC3)ccc21,-3.4,-20,12,-27,?,0.6%,-36
COc1ccc(NC(=O)CSc2nc(O)cc(=O)n2-c2ccc(OC)cc2)cc1,5.1,-8,19,1,12%,9.1%,6

# Full records as entered above.
# Shown for CCn1c(C)c(C)c2cc(C(=O)NCCCN3CCCCCC3)ccc21 = D2 ag = -3.4; Six1-Eya2 blk = -20; TRPV1 potentiator = 12; CtBP-E1A inh = -27; Sfp PPTase inh = ?; PINK1 expr mod = 0.6%; D2 PAM = -36
# Shown for O=C(NNC(=O)c1sccc1-n1cccc1)c1cccs1 = D2 ag = -7.3; Six1-Eya2 blk = -12; TRPV1 potentiator = -13; CtBP-E1A inh = -3; Sfp PPTase inh = 15%; PINK1 expr mod = 1.4%; D2 PAM = -3

# Marked active in Sfp PPTase inh, among the entries above:
mol	D2 ag	Six1-Eya2 blk	CtBP-E1A inh	Sfp PPTase inh	PINK1 expr mod	D2 PAM
CCn1c(N)c(C(=O)NCC2CCCO2)sc1=S (stereo not drawn)	-1.7	-3	4	18µM*	3.0%	-10

# Additional structures.
SMILES,D2 ag,Six1-Eya2 blk,TRPV1 potentiator,CtBP-E1A inh,Sfp PPTase inh,PINK1 expr mod,D2 PAM
Cc1nnc(SCc2nc3ccccc3s2)n1-c1ccccc1,-1.1,-5,28,13,-1%,nt,-26
CCn1c(/N=C/c2ccccc2NS(=O)(=O)c2ccc(C)cc2)nc2ccccc21,-1.7,5,3,0,11%,18%,-22
Cc1cc(C)n(CCC(=O)N/N=C/c2ccc(Cl)c([N+](=O)[O-])c2)n1,2.5,1,15,0,-2%,-0.2%,-3
CCCN(CC(=O)Nc1ccccc1OC)C(=O)c1cc(S(=O)(=O)NCc2ccccc2)ccc1C,-2.9,-29,7,7,2%,4.6%,-9
